# Bioassay records (PubChem)
# VDR inhibitor – vitamin D3 receptor (human) inhibition. Potency, µM, for the others: max response, negative = inhibition, hits mostly inhibitors. hit rate 0.93% among 400,000. VDR-SRC2-3 peptide fluorescence polarization, 2 h; active means well fitted inhibition curve with a large enough effect; inconclusive means small, poorly fitted or top-dose-only effect, or another doubt; inactive means no such curve, though single readings can be large or run the other way; further: series mostly up to about 120 µM
# Target sequence (P11473 whole entry, looked up): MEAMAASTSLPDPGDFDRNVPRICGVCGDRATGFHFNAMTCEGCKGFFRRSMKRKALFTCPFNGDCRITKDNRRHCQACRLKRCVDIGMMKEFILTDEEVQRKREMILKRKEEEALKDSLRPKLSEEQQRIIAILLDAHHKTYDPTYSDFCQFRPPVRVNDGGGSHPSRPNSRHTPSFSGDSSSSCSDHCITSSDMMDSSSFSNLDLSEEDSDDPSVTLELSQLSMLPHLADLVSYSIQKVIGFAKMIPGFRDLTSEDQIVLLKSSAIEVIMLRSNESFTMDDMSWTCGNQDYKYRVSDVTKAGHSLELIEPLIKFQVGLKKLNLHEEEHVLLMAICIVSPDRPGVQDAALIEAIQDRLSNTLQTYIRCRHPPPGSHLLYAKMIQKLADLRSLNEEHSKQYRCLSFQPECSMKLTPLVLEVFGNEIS
#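 The screen uses fluorescence polarization to detect compounds that interfere with recruitment of the SRC2-3 coactivator peptide to VDR; plates are read after 2 h at room temperature.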
# Numbers without * were called inactive; ? = inconclusive. On the % scale 0 is the no-effect control and ±100 the full control effect; potency means the concentration at half of the fitted maximal effect.
VDR inhibitor	smiles
7%	CCn1cc([N+](=O)[O-])c(C(=O)N2N=C(c3ccc(Cl)c(Cl)c3)CC2c2ccccc2O)n1 (stereo not given)
-19%	Cc1cccc(C(=O)n2c(=S)nc3cc(C)ccn32)c1
-1%	COC(=O)c1cnc(SCc2ccc(C)cc2)n1C
8%	CCc1ccc(C(=O)CSc2nnc(C3CC3)n2C2CC2)cc1
-4%	Cc1ccc2nc(NC(=O)CSc3nccn3-c3ccc(Cl)cc3)sc2c1
-5%	CCN(CC)c1ccc(NS(=O)(=O)c2ccc(-c3coc(C)n3)cc2)c(C)c1
-19%	CN(c1ccc(F)cc1)S(=O)(=O)c1ccc2[nH]cc(C(=O)O)c(=O)c2c1
13%	Cc1[nH]c(=O)[nH]c(=O)c1CSc1nnc([C@H](CC(C)C)NC(=O)OC(C)(C)C)o1
-3%	N#Cc1nc(COc2ccccc2F)oc1NCCCn1ccnc1
0%	O=C(NCc1ccco1)C1CC2CCC1C2 (stereo not given)
-13%	Nc1c(C2=NCCO2)nnn1Cc1ccccc1
-26%	Cc1cccc(N2CC(C(=O)Nc3nnc(SCC(=O)NCC4CCCO4)s3)CC2=O)c1 (stereo not given)

# Next part
VDR inhibitor	smiles
2%	O=C(O)c1ccc(NCc2nc3ccccc3n2Cc2ccccc2)cc1
-3%	O=C(C[n+]1cc(-c2ccccc2)n2c1CCCCC2)c1ccc(Cl)cc1
7%	CN(C)S(=O)(=O)c1ccc(Cl)c(NC(=O)COC(=O)CNS(=O)(=O)c2c(F)cccc2F)c1
-15%	COc1ccc(Nc2ccccc2NC(=O)c2ccccc2Br)cc1
-4%	N#Cc1cnn2c1nc(N1CCOCC1)c1ccccc12
-1%	Nc1nonc1OCCOCCOCCOc1nonc1N
28µM*	O=C(Oc1ccccc1/C=C\C(=O)c1cc2ccccc2o1)c1cccc(F)c1
1%	CC(NC(=O)c1cccc(F)c1)C1CC2CCC1C2 (stereo not given)
22%	CC(C)CNC(=O)c1ccccc1-c1ccccc1C(=O)O
-18%	CCOc1cc(/C=N/NC(N)=S)cc(Br)c1OCc1ccccc1C
-3%	COc1cc2c(cc1OC)CN(C(=O)/C=C/c1cccc([N+](=O)[O-])c1)CC2
-16%	CN(C)C(CNc1ncnc2sccc12)c1cccs1 (stereo not given)

# 2 records drawn at random from those above, as already listed:
VDR inhibitor	smiles
-16%	CN(C)C(CNc1ncnc2sccc12)c1cccs1 (stereo not given)
-3%	COc1cc2c(cc1OC)CN(C(=O)/C=C/c1cccc([N+](=O)[O-])c1)CC2

# Remaining list, next part
VDR inhibitor	smiles
2%	COc1ccc(CNC(=O)c2c[nH]c3c(OC)cc(OC)cc3c2=O)cc1
-29%	O=C1C=C(c2ccc3ccccc3c2)C[C@@H](c2ccc(Cl)cc2)C1
-3%	FC(F)(F)c1cccc(N/N=C/c2ccccc2)c1
9%	O=C(NCc1cccs1)C1CCN(S(=O)(=O)c2ccc(Cl)cc2)CC1
11%	CCc1ccccc1NC(=O)C(=O)c1cc(C)n(-c2ccccc2F)c1C
-9%	NC(=O)Cc1nc(-c2ccc(F)cc2)cs1
-7%	CCN(C(=O)c1cc2c(Cl)nc3ccc(C)cc3c2s1)c1cc(OC)ccc1OC
4%	N#Cc1nc(-c2ccco2)oc1N1CCN(Cc2ccccc2)CC1
-4%	Cc1ccc(C)c(S(=O)(=O)N2CCCCC2CCNC(=O)C(=O)NCc2ccncc2)c1 (stereo not given)
17%	Cc1ccc(Cn2c(C)c(CNCc3ccc(OC(C)C)cc3)c(C(=O)O)c2C)cc1
-4%	COc1cccc(NC(=O)CSc2nc(=O)n(Cc3ccccn3)c3c2CCC3)c1
-8%	O=C(NCCS(=O)(=O)NC1CCCCC1)c1ccc2c(c1)OCO2

# Carrying on.
VDR inhibitor	smiles
16%	O=C1CCCCC(=O)N(c2ccccc2)c2ccccc21
-9%	Cc1ccc(NC(=O)c2ccccc2N(C)S(=O)(=O)c2ccccc2)c(C)c1
2%	COc1ccc(C2=NNC(=Nc3cc(S(=O)(=O)N(C)C)ccc3C)SC2)c(OC)c1
-10%	CCCCN1C(=O)C(CC(=O)NCC)SC1=Nc1ccccc1 (stereo not given)
12%	COc1ccccc1CCNC(=O)Cc1ccc(NC(=O)N2CCSc3ncccc32)cc1
-20%	CC(=O)Nc1ccc(S(=O)(=O)N(Cc2ccco2)Cc2cc3ccccc3[nH]c2=O)cc1
-14%	CCOc1ccc(C(=O)Nc2c3c(nn2-c2ccccc2)CS(=O)(=O)C3)cc1
-1%	COC(=O)c1ccc(C(=O)OC)c(NC(=S)N2CCN(c3ccccc3)CC2)c1
2%	C=C(C)n1c(=O)n(Cc2ccccc2C)c2ccccc21
-5%	CN(C)C(=O)Cn1c(SCC(=O)NCc2ccc3c(c2)OCO3)nc2ccccc21
-4%	O=C(CN1CCN(c2ccccn2)CC1)NC1CCCC1
?	CC1=NN(c2ccc(C)cc2C)C(=O)C1C(c1ccccc1)C1C(=O)N(c2ccc(C)cc2C)N=C1C (stereo not given)

# A stretch of the results above, as a working copy:
VDR inhibitor	smiles
7%	CCn1cc([N+](=O)[O-])c(C(=O)N2N=C(c3ccc(Cl)c(Cl)c3)CC2c2ccccc2O)n1 (stereo not given)
-19%	Cc1cccc(C(=O)n2c(=S)nc3cc(C)ccn32)c1

# Going on with the list:
VDR inhibitor	smiles
-9%	COC(=O)[C@]1(C)CCC[C@@]2(C)C3CC[C@]4(OC(C)=O)C[C@@]3(CCC21)CC4=O (stereo not given in full)
-4%	C[C@@H]1CC=C[C@H]2[C@H]1C(=O)N(Cc1ccccc1)[C@H]2c1ccc(C(F)(F)F)cc1
8%	O=C(Nc1nsc(-c2ccccc2)n1)c1cccs1
-6%	O=C1CC(c2cccc(Cl)c2Cl)c2cc3c(cc2N1)OCCO3 (stereo not given)
1%	O=[N+]([O-])c1cccc(COc2ccccc2CN2CCCC2)c1
-1%	CCOc1cccc2sc(N(Cc3cccnc3)C(=O)c3ccco3)nc12
23%	CCNC(=O)NCc1c(C)c(C)n(Cc2ccccc2)c1-n1cccc1
1%	CCOC(=O)c1cnc2c(C)cc(Cl)cc2c1NCCCN1CCOCC1
6%	CCOc1ccc(N(CC(=O)NCc2ccc(OC)cc2)S(C)(=O)=O)cc1
0%	Nc1n[nH]c(C(F)(F)F)c1-c1ccccc1
10%	COc1ccccc1N1CCN(C(c2ccc(F)cc2)c2nnnn2C(C)C)CC1 (stereo not given)
10%	COc1ccc(NC(=O)/C(C#N)=C/c2ccc(-c3ccccc3C(=O)O)o2)cc1

# Arranged by value in VDR inhibitor (low to high): 3 of the compounds above.
VDR inhibitor	smiles
-9%	COC(=O)[C@]1(C)CCC[C@@]2(C)C3CC[C@]4(OC(C)=O)C[C@@]3(CCC21)CC4=O (stereo not given in full)
6%	CCOc1ccc(N(CC(=O)NCc2ccc(OC)cc2)S(C)(=O)=O)cc1
23%	CCNC(=O)NCc1c(C)c(C)n(Cc2ccccc2)c1-n1cccc1

# 4 of the compounds above, field by field:
Molecule: CCOc1ccc(N(CC(=O)NCc2ccc(OC)cc2)S(C)(=O)=O)cc1
  VDR inhibitor: 6%
Molecule: Nc1n[nH]c(C(F)(F)F)c1-c1ccccc1
  VDR inhibitor: 0%
Molecule: COc1ccccc1N1CCN(C(c2ccc(F)cc2)c2nnnn2C(C)C)CC1 (stereo not given)
  VDR inhibitor: 10%
Molecule: COc1ccc(NC(=O)/C(C#N)=C/c2ccc(-c3ccccc3C(=O)O)o2)cc1
  VDR inhibitor: 10%

# New compounds follow
VDR inhibitor	smiles
6%	CCOc1ccc(S(=O)(=O)N2CCN(C(=O)c3sccc3C)CC2)cc1
-9%	COc1cccc(CNC(=O)C2CCN(S(=O)(=O)c3ccc4c(c3)CC(C)N4C(C)=O)CC2)c1 (stereo not given)
-5%	CC(C#N)(NC(=O)CN1CCN(S(=O)(=O)c2cc(C(F)(F)F)ccc2Cl)CC1)C1CC1 (stereo not given)
-8%	CCN1C(=O)CC(n2c(C)nc3ccccc32)C1=O (stereo not given)
-1%	CCc1cc2c(=O)n(CC(C)C)cnc2s1
-30%	COc1ccc(C(C[N+](=O)[O-])c2c(-c3ccccc3)cc3ccccn23)cc1 (stereo not given)
-10%	C[C@@H]1CN([C@@H](C)CO)C(=O)c2cc(N(C)C)ccc2O[C@@H]1CN(C)S(C)(=O)=O
-11%	CS(=O)(=O)c1ccc(C(=O)OCC(=O)Nc2ccc(OC(F)(F)F)cc2)cc1[N+](=O)[O-]
-5%	CN(Cc1ccco1)C(=O)Cn1cc(S(=O)(=O)N2CCCC2)c(S(=O)(=O)N2CCCC2)c1
2%	O=C1CCC([N+](=O)[O-])C(c2cccc([N+](=O)[O-])c2)N1 (stereo not given)
79µM*	Cc1ncc(CO)c(/C=N/NC(=S)Nc2cccc(Cl)c2)c1O
-8%	COc1ccc(CNC(=O)C2CCN(S(=O)(=O)N3CCCC3)CC2)c(OC)c1

# Following part
VDR inhibitor	smiles
-1%	CCN(CC(O)CON=C1c2ccccc2-c2ccccc21)S(=O)(=O)c1ccc(Cl)cc1 (stereo not given)
8%	Cc1cc2sc3ccccc3c(=O)c2c(C)c1O
16%	O=C(CSc1nnc2scc(-c3ccccc3)n12)Nc1nsc(-c2ccccc2)n1
-9%	COc1ccc(CC(=O)N/N=C(\C)CC(=O)Nc2ccc3c(c2)OCCO3)cc1OC
-11%	COc1cc(NC(=O)CSc2nc(C3CC3)nc3ccccc23)cc(OC)c1
15%	CN=C1NC(C)(C)C2CCC(C)(CC2)S1
-4%	CSCCC(NS(=O)(=O)c1ccc(Cl)cc1)C(=O)O (stereo not given)
-5%	COc1ccc2c(CC(=O)Nc3ccc(OC)nc3)coc2c1
1%	O=C(NCCCN1CCOCC1)c1ccc(S(=O)(=O)Nc2ccccc2)cc1
-26%	O=C(c1cccc(F)c1)N1CCC2(CC1)NCCc1[nH]cnc12
-17%	O=C(OCc1nnc(-c2ccccc2)o1)c1ccc([N+](=O)[O-])s1
1%	Cc1cc2nc(-c3ccc(OCc4ccc(F)cc4)cc3)cc(C(F)(F)F)n2n1

# More records.
VDR inhibitor	smiles
-9%	CC1(C)CC(NC(=S)NC2CC2)CC(C)(C)N1
-1%	CCOc1cc(-c2nnc(NC(=O)C3=COCCO3)o2)cc(OCC)c1OCC
8%	O=C1CC(N(C(=O)c2ccco2)c2cccc(Cl)c2)C(=O)N1c1cccc(Cl)c1 (stereo not given)
0%	CC(=O)Oc1ccc(NC(=O)Cc2ccccc2)cc1
-5%	COc1ccc(NC(=O)Cc2ccccc2F)cc1S(=O)(=O)N1CCCCC1
-6%	CCCNNC(=O)C(O)(c1cccc(C)c1)c1cccc(C)c1
-19%	Cc1ccc2[nH]c3c(c2c1)CCNC3=O
3%	COc1ccccc1NC(=O)CCC(=O)Nc1nnc(C2CCCCC2)s1
-17%	CCc1cccc(NC(=O)C2CCCN(S(=O)(=O)c3cnc[nH]3)C2)c1 (stereo not given)
4%	CCOc1ccc(CCNC(=O)c2ccc(-c3nc(CSc4ccccc4)c(C)o3)cc2)cc1
-22%	Cc1ccccc1-c1nc(CS(=O)(=O)CC(=O)NCc2ccc3c(c2)OCO3)c(C)o1
14%	COc1ccccc1CNC(=O)N1CCN(S(=O)(=O)c2ccccc2)CC1

# Later entries:
VDR inhibitor	smiles
-3%	CC(C)c1ccc([N+](=O)[O-])cc1S(=O)(=O)N1CCN(C)CC1
-18%	CCc1ccc(OCC(=O)N/N=C/c2cc([N+](=O)[O-])ccc2N2CCCCCC2)cc1
-14%	Cc1ccc(NC(=O)CSCC(=O)O)cc1
-14%	COC(=O)[C@@]1(Cc2ccccc2)[C@H]2C(=O)N(C)C(=O)[C@H]2[C@H]2CN=C(SCc3ccccc3)N21
12%	Cc1ccc(C)c(NC2=NCC(=O)N2C2CCCCC2)c1
-11%	O=C(NC(c1ccc(Cl)cc1)c1cc(Cl)c2cccnc2c1O)c1cccnc1 (stereo not given)
-4%	COc1ccc2oc(=O)c(C(=O)NCCc3c(C)[nH]c4c(Cl)cccc34)cc2c1
0%	O=C1CN(C(=O)COC(=O)/C=C/c2ccc(OC(F)F)cc2)c2ccccc2N1
?	Clc1nc(NCc2cccs2)c2[nH]cnc2n1
-7%	C=C1C=CS(=O)(=O)N(Cc2ccccc2)C1
1%	CN(C)c1oc(COc2ccccc2F)nc1C#N
-19%	O=[N+]([O-])c1ccc2c(c1)ncn2CCc1ccccc1

# Next part:
VDR inhibitor	smiles
3%	COc1ccc(-c2cc3ccccc3n2CC(O)CN2CCOCC2)cc1 (stereo not given)
?	CCCCOc1ccc(C(=O)NCC(=O)NCC(c2ccco2)N2CCCCC2)cc1 (stereo not given)
2%	CCOC(=O)C1(Cc2ccccc2C(F)(F)F)CCN(Cc2ccc(COC)o2)CC1
13%	COc1cccc(-n2c(=S)sc3c(=O)n(-c4ccccc4C)c(SCC(=O)O)nc32)c1
-19%	COc1ccc(C(C(=O)NC2CCCC2)N(C(=O)c2csnn2)C2CC2)cc1 (stereo not given)
-17%	O=C(NC1CC1)c1cccc(Nc2ccc(-c3ccc4c(c3)OCCO4)nn2)c1
-15%	COCCCN1CC(=O)N2C(c3cccc(OC)c3)c3[nH]c4ccccc4c3C[C@H]2C1=O (stereo not given in full)
19%	CCOc1ccccc1NC=C1C(=O)OC(C)(C)OC1=O
8%	COc1ccc(C(=O)NN(C)c2nc(-c3ccccc3)cc(C)c2S(C)(=O)=O)cc1
-2%	NS(=O)(=O)c1ccc(CCNC(=O)CSc2cccs2)cc1
-13%	S=c1[nH]nc(-c2ccc3ncccc3c2)n1-c1ccc2c(c1)OCCO2
3%	COc1ccc(Nc2nc(-c3ccccc3)c3cc(Br)ccc3n2)cc1

# More records
VDR inhibitor	smiles
3%	CC(Sc1nnc(C(C)N(C)C)n1-c1ccc(Cl)cc1)C(=O)Nc1ccc2c(c1)OCO2 (stereo not given)
-19%	CC1Nc2ncnc(N3CCN(c4ccccn4)CC3)c2N(Cc2ccccc2)C1=O (stereo not given)
-8%	Cc1ccccc1-c1n[nH]c(=S)n1/N=C/c1c(C)nn(-c2ccccc2)c1C
7%	CCOC(=O)Nc1nnc(-c2cccc(OC)c2)s1
-20%	C[C@H](O)c1[nH]c2cc(F)ccc2c1[C@H](C)O
-1%	Cc1ccc(S(=O)(=O)CCc2nc3ccccc3s2)cc1
4%	COc1ccc(CN2C(=O)CN=C2Nc2ccc(C)cc2C)cc1

# The list is partial; the hit share may differ from the screen's.
